# AmpC nodet inh = blocks E. coli AmpC beta-lactamase in absence of detergent; 1.8% of 71,000 active; AID 585; Potency, µM (doses to about 28.7 µM), for inactives: at the highest dose activity change, negative = inhibition; AmpC nitrocefin hydrolysis, absorbance 480 nm, no detergent; potencies from a single point are estimates; active = falling curve, for most hits resting on a single point; inconclusive = weak or doubtful change; inactive = flat or rising curve; further: % of control where 0% means no effect; about half of the hits show no inhibition at the top dose; a quarter of the inactives give rising signals
# Target sequence (P00811 whole entry, looked up): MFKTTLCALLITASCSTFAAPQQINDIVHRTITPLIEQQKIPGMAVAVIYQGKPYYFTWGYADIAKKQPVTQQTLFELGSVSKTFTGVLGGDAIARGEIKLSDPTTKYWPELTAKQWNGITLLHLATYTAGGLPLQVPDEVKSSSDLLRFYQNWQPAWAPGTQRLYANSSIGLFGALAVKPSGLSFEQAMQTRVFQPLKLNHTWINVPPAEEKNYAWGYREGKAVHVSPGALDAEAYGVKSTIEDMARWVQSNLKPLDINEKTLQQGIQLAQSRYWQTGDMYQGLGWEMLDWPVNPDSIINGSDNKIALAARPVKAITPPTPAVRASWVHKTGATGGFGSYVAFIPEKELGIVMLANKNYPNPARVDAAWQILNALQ
#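 AmpC, 20 mM phosphate pH 7.0; 15 min cpd preinc, RT; start with nitrocefin (800 uM stock); A480 kinetic read, 20 s intervals, 4 min. No-enzyme wells = negative control.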
# An asterisk follows results filed as active; & = joins results of further samples; [ ] = another dose, or the depositor's remark. Potency means the concentration at half of the fitted maximal effect. Some of the compounds tested, so the mix of outcomes need not match the whole.
SMILES,AmpC nodet inh
Cc1ccc(NC(=O)C2CCCN(S(=O)(=O)c3ccc4c(c3)oc(=O)n4C)C2)nc1 (stereo not drawn),4µM*[single pt active]
c1ccc2c(NC3CC3)nc(-c3ccoc3)nc2c1,30%
O=C(Nc1cccc(Oc2ccc3c(c2)C(=O)NC3=O)c1)c1ccco1,-7%
Cc1ccc(S(=O)(=O)NC(C)C(c2cccs2)N2CCN(C)CC2)cc1 (stereo not drawn),4%
Cc1ccc(S(=O)(=O)N2CCN(Cc3cccc(C)c3O)CC2)cc1,3%
N#CC(C#N)=Cc1cc(O)c(O)c(O)c1,-7%
Cc1ccc(NC2c3ncccc3C(=O)N2Cc2ccc(F)cc2)cc1 (stereo not drawn),53%
CCCC(NC(=O)c1ccccc1)c1nc2ccccc2n1Cc1ccc(C(=O)OC)o1 (stereo not drawn),34%
CC1=NN(c2ccccc2)C(=O)[C@@H]1N=Nc1ccc([As](=O)(O)O)c(O)c1,-8%[5.75 µM]
CN(CC(=O)Nn1cnnc1)S(=O)(=O)c1cc(Cl)ccc1Cl,-8%
O=C(NC1CCCCC1)C1CCN(S(=O)(=O)c2cccc3cccnc23)CC1,3%
CCCCCCN(C(=O)CCCCCN1C(=O)NC(c2ccc(-c3ccccc3)cc2)C(C(=O)OCc2ccccc2)=C1C)C(C(=O)NCCCC)c1ccccn1 (stereo not drawn),28%
CCCCOC(=O)C1=C(N)OC2=C(C(=O)CC(C)(C)C2)[C@]12C(=O)N(C)c1ccccc12,104%
CCS(=O)(=O)N1CCC(C(=O)N2CCN(c3ccccc3)CC2)CC1,11%
CCn1c(SCC(=O)c2ccc(O)c(O)c2)nnc1-c1ccccc1OC,-20%
CC(C)CCn1c(SCC#N)nc2c(sc3ccccc32)c1=O,-3%
Cc1nccc2[nH]c(=O)c(C(=O)NCCCN(C)C3CCCCC3)cc12,-14%
Cc1ccc(C(CCN)c2ccco2)cc1 (stereo not drawn),-1%
O=C(Nc1nccs1)C1CCCN1S(=O)(=O)c1ccc(Cl)cc1 (stereo not drawn),-2%
CC1CN(c2nc3c(c(=O)n(C)c(=O)n3C)n2Cc2c(Cl)cccc2Cl)CC(C)O1 (stereo not drawn),132%
Cc1ccsc1/C=N/n1cnc2sc(C)c(C)c2c1=O,18%
Cc1ccc2nc(NC(=O)COC(=O)c3ccco3)sc2c1,-22%
CCOC(=O)N1CCC(=C(C#N)C(=O)Nc2cc(OC)ccc2OC)CC1,30%
CCN(CC)S(=O)(=O)c1ccc(NC(=O)c2ccccn2)cc1,10%
CC1CN(C(=O)c2cnn3c(C(F)F)cc(-c4ccccc4)nc23)CC(C)O1 (stereo not drawn),62%

# The list continues.
SMILES,AmpC nodet inh
O=C(Nc1ccc2c(c1)nc1n2CCOC1)C1CCCCC1,-8%
C=CCOC(=O)C1CC=CCC1C(=O)Oc1ccc(F)cc1F (stereo not drawn),9%
Cc1ccc(NCc2nnc(SCC(=O)c3ccccc3)n2Cc2ccco2)c(C)c1,29%
CCOC(=O)CN1CC23C=CC(O2)C(C(=O)N2CCN(c4ccc(F)cc4)CC2)C3C1=O (stereo not drawn),26%
O=C(Cn1cc2c(n1)CCCCC2)N1CCc2ccccc2C1,23%
COc1cccc(OC)c1C(=O)N1CCN(c2ccccn2)CC1,12%
CC1CCCCN1C(=O)Cn1c(=O)n(CCC(=O)NCc2ccco2)c(=O)c2sccc21 (stereo not drawn),-1%
CCOC(=O)c1c(C)oc2ccc(NS(=O)(=O)c3ccc4c5c(cccc35)C(=O)N4)cc12,14%
CCCOC(=O)NC(CC)COC(=O)Nc1cc(C)ccc1C (stereo not drawn),20%
O=C(CN(C1CC1)S(=O)(=O)c1ccc(S(=O)(=O)N2CCCCCC2)cc1)Nc1ccccc1,-4%
O=c1c2ccccc2nc(SCc2cn3ccsc3n2)n1-c1ccccc1F,5%
CC(=O)c1cccc(NC(=O)CN(c2ccc(C)cc2)S(=O)(=O)c2cccc3nonc23)c1,-9%
COC(=O)COc1nc(C)c(Br)c(OC)n1,4%
O=C(OC(C(=O)NCC1CCCO1)c1ccccc1F)c1ccco1 (stereo not drawn),4%
O=C(O)CCN(CCC(=O)O)S(=O)(=O)c1ccccc1,-18%
Cc1noc(C)c1-c1cc(NC2CCNCC2)ncn1,2%
COc1cccc(-c2csc(N3CCN(Cc4ccccc4)CC3)n2)c1,14%
CO/N=C(\C(=O)N[C@@H]1C(=O)N2C(C(=O)O)=C(COC(N)=O)CS[C@@H]12)c1ccco1,0.04µM*
Cn1c(=O)[nH]c(=O)c2c1nc(OC(=O)c1ccccc1)n2CC(O)COc1ccc(F)cc1 (stereo not drawn),-1%
Cc1c2oc3c(C)ccc(C(=O)N[C@@H]4C(=O)N[C@H](C(C)C)C(=O)N5CCC[C@H]5C(=O)N(C)CC(=O)N(C)[C@@H](C(C)C)C(=O)O[C@@H]4C)c3nc-2c(C(=O)N[C@@H]2C(=O)N[C@H](C(C)C)C(=O)N3CCC[C@H]3C(=O)N(C)CC(=O)N(C)[C@@H](C(C)C)C(=O)O[C@@H]2C)c(N)c1=O,143%
O=S(=O)(Nc1nc2ccccc2nc1Nc1ccc2c(c1)OCCO2)c1cccs1,-15%
CC1=C(C(=O)OCCOC(C)C)C(c2cc3c(cc2Br)OCO3)C2=C(CCCC2=O)N1 (stereo not drawn),58%
COc1ccccc1C1CC(c2ccc(Cl)cc2Cl)Nc2nc(N)nn21 (stereo not drawn),150%
COc1ccc(N2CCN(C(c3cccc(OC)c3OC)c3nnnn3C3CCCC3)CC2)cc1 (stereo not drawn),100%
O=C(CC1N=C2c3ccccc3N=C(SCc3ccc(F)cc3)N2C1=O)NCc1ccco1 (stereo not drawn),45%

# Some of the entries above, reformatted.
canonical_smiles	AmpC nodet inh
O=C(Nc1ccc2c(c1)nc1n2CCOC1)C1CCCCC1	-8%
C=CCOC(=O)C1CC=CCC1C(=O)Oc1ccc(F)cc1F (stereo not drawn)	9%
Cc1ccc(NCc2nnc(SCC(=O)c3ccccc3)n2Cc2ccco2)c(C)c1	29%
CCOC(=O)CN1CC23C=CC(O2)C(C(=O)N2CCN(c4ccc(F)cc4)CC2)C3C1=O (stereo not drawn)	26%
O=C(Cn1cc2c(n1)CCCCC2)N1CCc2ccccc2C1	23%
COc1cccc(OC)c1C(=O)N1CCN(c2ccccn2)CC1	12%
CC1CCCCN1C(=O)Cn1c(=O)n(CCC(=O)NCc2ccco2)c(=O)c2sccc21 (stereo not drawn)	-1%

# (further entries)
SMILES,AmpC nodet inh
CCOc1ccc(C(=O)Nc2ccc(N3CCCC3)cc2)cc1,-16%
CCCNCc1cc(OCC)c(OCC(N)=O)cc1Br,7%
Cc1ccc(-n2nc3c(c2NC(=O)c2ccc(OC(C)C)cc2)CS(=O)C3)cc1 (stereo not drawn),72%
Cc1ccc(OCC(=O)Nc2cccc(O)c2)cc1C,-8%
Cc1ccc(CS(=O)(=O)CCC(=O)NCc2ccccn2)cc1,-12%
COC(=O)c1ccc(NC(=O)Nc2ccc(F)cc2)cc1,-8%
CC(=O)Nc1ccc(S(=O)(=O)N(C2=NCC(C)S2)c2ccccc2)cc1 (stereo not drawn),11%
CCOc1ccc(NC(=O)CN2C(=O)C3CCCN3C2=O)cc1 (stereo not drawn),2%
c1ccc(CSCCc2ccncc2)cc1,8%[5.75 µM]
COc1cc2c(cc1O)C(SC)=NC(C)(C)C2,-7%
COc1ccccc1CNc1ncnc2ccc(-c3cccnc3)cc12,72%
CN(C)/C=N/c1c(C#N)cnn1-c1ccccc1,3%
Cc1cc2nc(-c3cccc(NC(=O)c4ccc(Br)o4)c3C)oc2cc1C,-6%
O=C(c1cc(C(F)(F)F)cc(C(F)(F)F)c1)N1CCC2(CC1)CN(Cc1ccccc1)C2,2%
CCOC(=O)N1CCN(C(=O)c2ccc3c(=O)n(Cc4ccccc4)c(=S)[nH]c3c2)CC1,111%
CCc1c(C)nc2c(C#N)c(C)[nH]n2c1=O,-6%
CCOc1ccc(NC(=O)CN2CCN(CC(=O)Nc3ccc4c(c3)OCCO4)CC2)cc1,81%
CCc1c(C)nc2ncnn2c1N1CCC(C(=O)N2CCN(c3ccc(F)cc3)CC2)CC1,98%
CN(C)CCC(=O)[C@@]1(O)CC[C@H]2[C@H]3CC=C4C[C@@H](O)CC[C@]4(C)[C@H]3CC[C@]21C,9%[5.75 µM]
CCCCC1CC(CSc2ncn[nH]2)OC1=O (stereo not drawn),12%
C=CC1=C(C(=O)O)N2C(=O)[C@@H](NC(=O)/C(=N\OCC(=O)O)c3csc(N)n3)[C@@H]2SC1,0.32µM*
CC(C)(C)OC(=O)N1CCC(C(=O)O)CC1,-12%
Cc1cc(Cl)ccc1OCC(=O)N1CCCCC1,22%
COc1ccc(-c2nnc3ccc(SCC(N)=O)nn23)cc1OC,-10%
O=C(Nc1ccc(Nc2ccccc2)cc1)c1ccco1,-11%

# (continued)
SMILES,AmpC nodet inh
CC(C)CCNC(=O)NC(=O)CSc1nnc(-c2ccccc2Br)o1,14%
O=c1oc2ccccc2n1CCn1c2ccccc2c2nc3ccccc3nc21,-4%
O=C1CCCc2c1nc(-c1ccccc1)n2O,-10%
Cc1nc(SCC(=O)CC(=O)OC(C)C)c(C#N)c(C)c1C,30%
Cc1ccc2[nH]c3c(=O)n(CCCN4CCN(C)CC4)cnc3c2c1,8%
C=CCN1CC[C@@]23CCCC[C@@H]2[C@@H]1Cc1ccc(O)cc13,-16%
CN(C)[C@H]1C(=O)C(C(N)=O)=C(O)[C@]2(O)C(=O)C3=C(O)c4c(O)cccc4[C@@](C)(O)[C@H]3C[C@@H]12,-12%[12.8 µM]
Cc1ccc(-n2nnnc2SC(C)C(N)=O)c(C)c1 (stereo not drawn),0%
O=C(Nc1cc(C(F)(F)F)ccc1N1CCOCC1)c1ccco1,0%
COc1cc(C2=NOC(C(=O)Nc3ccc(C(C)=O)cc3)C2)cc(OC)c1OC (stereo not drawn),30%
Nc1nc(N)c2sc3nc4c(cc3c2n1)CCC4,-12%
CCOC(=O)C1=C(C)NC(SCC(=O)OC)=C(C#N)C1c1ccc(C(=O)OC)cc1 (stereo not drawn),76%
Cc1ccc(NC(=O)CN(C)S(=O)(=O)c2cccs2)cc1F,-19%
CCCOc1ccccc1C(=O)N(Cc1ccco1)C1CCS(=O)(=O)C1 (stereo not drawn),-5%
Cc1ccc2oc(=O)c3cnn(CC(=O)Nc4ccccc4N4CCN(C)CC4)c3c2c1,5%
Cc1ccccc1-c1ccc2ncnc(-n3ccnc3)c2c1,45%
CC(C)(C)NC(=O)C(c1ccccc1F)N(Cc1ccco1)C(=O)c1csnn1 (stereo not drawn),0%
CC(C)OC(=O)CSc1nnc(-c2cnccn2)n1-c1ccccc1,21%
CN(C)CCCOC(=O)Cc1ccc(Cl)cc1,-7%
COc1ccc(-n2c(SCC(=O)Nc3nccs3)nc3c(c2=O)SCC3)cc1,12%
COc1ccc(N2C(=O)CCC(C(=O)N(C)C3CCCCC3)C2c2ccc(OC)c(OC)c2)cc1 (stereo not drawn),118%
COc1ccc(C2/C(=C(/O)c3ccccc3)C(=O)C(=O)N2C)cc1 (stereo not drawn),-11%
CC(=O)Nc1ccc(S(=O)(=O)Nc2c(C)n(C)n(-c3ccccc3)c2=O)cc1,-6%
COc1cccc(C(=O)Cn2c(N3CCCCC3)nc3c2c(=O)n(C)c(=O)n3C)c1,93%
Cn1c(NC(=O)c2ccccc2Br)cc(=O)n(C)c1=O,-18%

# Fetched one by one from the entries so far (5):
SMILES,AmpC nodet inh
Cc1ccccc1-c1ccc2ncnc(-n3ccnc3)c2c1,45%
Cc1ccc2oc(=O)c3cnn(CC(=O)Nc4ccccc4N4CCN(C)CC4)c3c2c1,5%
CC(C)(C)NC(=O)C(c1ccccc1F)N(Cc1ccco1)C(=O)c1csnn1 (stereo not drawn),0%
CC(C)OC(=O)CSc1nnc(-c2cnccn2)n1-c1ccccc1,21%
CCOC(=O)C1=C(C)NC(SCC(=O)OC)=C(C#N)C1c1ccc(C(=O)OC)cc1 (stereo not drawn),76%

# Other compounds
SMILES,AmpC nodet inh
O=C(NCCCN1CCOCC1)c1cccs1,-9%
COc1ccc(C(=O)N2CCC[C@@]3(CCN(Cc4nccs4)C3)C2)cc1,42%
COC(=O)COc1ccc(S(=O)(=O)Nc2ccc(NC(C)=O)cc2)cc1,15%
COc1ccc2c(c1)C(=O)N(c1ccccc1OC)C(=O)C2,4%
COc1ccc(C2C(C(=O)OC3CCCCC3)=C(C)Nc3nnnn32)c(OC)c1OC (stereo not drawn),57%
Cc1nnc(SCC(=O)N(C)Cc2ccccc2)[nH]c1=O,-4%
COc1ccc(C)cc1-n1c(-c2ccncc2)n[nH]c1=S,0%
CC(C)(C)n1nnnc1C(c1ccncc1)N1CCCCCC1 (stereo not drawn),30%
COC(=O)[C@H](Cc1ccccc1)NC(=O)[C@H]1C[C@@H]1[C@H](NC(=O)OCc1ccccc1)c1ccccc1,19%
COCC(=O)N1CCC2(CCN(Cc3ccncc3)CC2)CC1,56%
Cn1nnnc1SCc1nc2ccccc2s1,4%
Cc1nn2c(c1-c1ccccc1)N=C(c1ccco1)CC2c1ccccc1 (stereo not drawn),29%
c1ccc(-c2nc3c4ccccc4nc(N4CCN(c5ccccn5)CC4)n3n2)cc1,13%
O=C(CSc1nc2ccccc2[nH]1)NCc1ccco1,-9%
Cc1ccc(-n2c3c(cc(C(=O)Nc4cccc(C)n4)c2=O)C(=O)CCC3)cc1,7%
CC(C)Cc1ccc(S(=O)(=O)N2CCN(C(=O)c3ccco3)CC2)cc1,89%
CSc1nnc(C2CCNCC2)n1C,2%
c1cc(CN2CCCCC2)cc(OCCCNc2nc3ccccc3s2)c1,74%&47%
C[C@@]12C(=O)OC(=O)[C@@]1(C)[C@H]1CC[C@@H]2O1,2%&-4%
